TRPML1 blocker: human mucolipin-1 channel inhibition | AID 624415 | 0.02% of 390,000 active | Q9GZU1 | TRPML1-inducible cells, Ca2+ dye fluorescence, FDSS; active compounds read low; inhibition of EC80 agonist-evoked calcium signal | activity change, negative = inhibition, % (test concentration not listed); in the data active means activity change below about -50%; inconclusive means about -30% to -50%; inactive means above about -30%;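 also: stimulus is agonist 54-4 at its EC80 concentration; % is scaled to controls: 0 for no effect and ±100 for the full control effect; compound concentration not given in the record; the text of the record puts the active cut at -80%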
Target sequence (Q9GZU1 whole entry, looked up): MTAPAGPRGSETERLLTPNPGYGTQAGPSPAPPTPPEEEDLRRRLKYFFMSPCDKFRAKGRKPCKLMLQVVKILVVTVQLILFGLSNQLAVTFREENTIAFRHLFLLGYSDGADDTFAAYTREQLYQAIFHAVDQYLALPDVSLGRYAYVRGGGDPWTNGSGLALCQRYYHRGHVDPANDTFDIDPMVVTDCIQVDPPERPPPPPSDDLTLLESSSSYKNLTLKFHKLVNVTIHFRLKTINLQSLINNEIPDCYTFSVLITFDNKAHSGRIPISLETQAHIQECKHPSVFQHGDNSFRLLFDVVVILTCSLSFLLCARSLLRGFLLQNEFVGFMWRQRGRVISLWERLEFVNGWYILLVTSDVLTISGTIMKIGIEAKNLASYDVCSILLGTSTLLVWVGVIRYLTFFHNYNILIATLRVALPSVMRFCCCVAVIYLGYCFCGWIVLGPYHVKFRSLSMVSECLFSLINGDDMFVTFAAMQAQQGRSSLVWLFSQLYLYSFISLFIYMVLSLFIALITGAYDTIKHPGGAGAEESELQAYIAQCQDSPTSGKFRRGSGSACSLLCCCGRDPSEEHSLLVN
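TRPML1-DL cells, Tet-induced overnight (~16 h, 37 °C) at 1,500 cells/well, were loaded with Ca8 no-wash dye plus quencher for 45-90 min at room temperature. Compounds were pinned during FDSS kinetic reading; agonist 54-4 at EC80 (4 uM final) then added.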
CtBP-E1A inh: CtBP/E1A binding inhibition | AlphaScreen GST-E1A/His-CtBP binding, 1536-well; active compounds read low; control for the full effect not named in the record | activity change, % (no concentration beside the values) | 0.49% of 340,000 active | AID 651724; in the data active means activity change below about -65%; inconclusive means about -30% to -65%; inactive means above about -30%; also: % is scaled to controls: 0 for no effect and ±100 for the full control effect
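Homogeneous bead-based format: GST-tagged E1A captured on glutathione donor beads, His-tagged CtBP on nickel acceptor beads; compounds precede bead addition by 2 h at 37 °C.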
TRPV1 PAM: human TRPV1 potentiation; TRPV1-expressing cells, Fluo-8 calcium influx, capsaicin EC20 potentiation; host cell line not named in the record; control for the full effect not named in the record; AID 540277; Q8NER1; potentiation, % at 8.33 µM; 0.02% of 320,000 active; active means potentiation above 80%; inconclusive means 30% to 80%; inactive means below 30%; also: 0% is about no effect
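Fluo-8 calcium influx in TRPV1-expressing cells, kinetic read (ex 480/em 520 nm). Compound added and read 3 min for agonist activity, followed by capsaicin at EC20 final and 2 min further read for enhancement.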
TRPML1 ag: human mucolipin-1 channel agonism | 0.12% of 410,000 active | TRPML1-expressing cells, Ca2+ dye fluorescence, FDSS; host cell line not named in the record; reference of the full effect not given here | activation, % (test concentration not listed); in the data active = activation above about 50%; inconclusive = about 30% to 50%; inactive = below about 30%; also: 0% is about no effect; the text of the record puts the active cut at 80%
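Tetracycline-induced TRPML1-DL cells are seeded and incubated overnight before loading with a no-wash Ca2+ dye and quencher. Agonist activity is taken from the 110 s fluorescence read following compound pin-transfer on an FDSS, before EC80 54-4 challenge.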
Six1-Eya2 blk: inhibitors of human Six1/Eya2 interaction | Q15475+O00167 | AlphaScreen GST-Six1/His-Eya2 binding, biochemical; active compounds read low; control for the full effect not named in the record | activity change, % (test concentration not listed) | 0.56% of 360,000 active; in the data active = activity change below about -65%; inconclusive = about -30% to -65%; inactive = above about -30%; also: % is scaled to controls: 0 for no effect and ±100 for the full control effect
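Homogeneous AlphaScreen proximity assay pairing GST-Six1 with His-tagged Eya2 (added as 5X mix: 250 nM and 500 nM) in 50 mM Tris pH 8.0, 300 mM NaCl, 1 mM TCEP. Glutathione donor and nickel acceptor beads; 1 h, 37 °C, dark.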
D2 PAM: potentiates the human D2 dopamine receptor allosterically; P14416; potentiation, % (no concentration beside the values); 0.23% of 360,000 active; DiscoveRx D2 beta-arrestin cells, luminescence, 90 min; 100% = 57 uM dopamine signal; active = potentiation of 50% or more; inconclusive = 30% to 50%; inactive = 30% or less;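 also: compound concentration not given in the record; tested on top of an EC20 dose of dopamine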
Target sequence (P14416 whole entry, looked up): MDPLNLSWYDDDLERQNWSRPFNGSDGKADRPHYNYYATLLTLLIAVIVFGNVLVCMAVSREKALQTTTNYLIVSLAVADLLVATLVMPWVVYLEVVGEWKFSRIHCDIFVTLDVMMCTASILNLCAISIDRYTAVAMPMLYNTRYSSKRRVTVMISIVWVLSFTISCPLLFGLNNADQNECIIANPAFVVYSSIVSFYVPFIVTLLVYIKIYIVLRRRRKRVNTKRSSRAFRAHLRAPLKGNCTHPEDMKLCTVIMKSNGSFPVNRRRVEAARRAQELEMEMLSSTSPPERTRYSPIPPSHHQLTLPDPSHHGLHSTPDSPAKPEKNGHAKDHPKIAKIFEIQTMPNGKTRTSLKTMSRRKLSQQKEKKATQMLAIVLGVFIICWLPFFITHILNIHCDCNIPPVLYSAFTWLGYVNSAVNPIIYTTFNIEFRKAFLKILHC
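PathHunter D2 cells, attached overnight at 37 deg C, received compound in DMSO plus dopamine at EC20 (50 nM final) for 90 min at 37 deg C. Beta-arrestin recruitment was read as luminescence after 1 h with detection reagent at ambient temperature.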
The depositor's hits bear a star; ? = inconclusive; · = not tested or not shown.

SMILES	TRPML1 blocker	CtBP-E1A inh	TRPV1 PAM	TRPML1 ag	Six1-Eya2 blk	D2 PAM
C=CCNC(=S)N/N=C/c1ccc(-c2cc(Cl)ccc2Cl)o1	36	1	17	-0.3	2	4
CCCCN(C(=O)c1cc2c(s1)CCC2)c1c(N)n(CCCC)c(=O)[nH]c1=O	1	1	17	-0.5	9	15
Cc1ccccc1NC(=O)CN1CCc2ccccc2C1	-3	0	?	-0.8	2	-12
COc1ccc(S(=O)(=O)N2CCCC(C(=O)N3CCN(C)CC3)C2)cc1C (configuration not stated)	11	5	6	-0.4	3	-16
Cc1nc2ccccn2c1CN(C)C(=O)C1CCC(=O)N(Cc2cccc(F)c2)C1 (configuration not stated)	12	5	16	-0.4	1	-3
CCN(CC)C(=O)C1CCN(Cc2cccc(OCc3ccccc3)c2)CC1	30	-1	11	-0.8	-1	-23
Cc1cccc(OCC(=O)Nc2ccc3c(c2)nc(CCN2CCC(C)CC2)n3C)c1	4	-1	8	-0.6	-2	-27
O=S(=O)(c1ccc(-c2csc(Nc3ccc(F)cc3)n2)cc1)N1CCCC1	10	-6	-2	0.1	2	?
O=C(CCSc1ccc(F)cc1)NNC(=O)c1ccccc1Cl	7	4	-3	-0.1	5	-4
COc1ccc(NC(=O)c2cc(S(=O)(=O)N3CCCCC3)ccc2OC)cc1	-4	-14	1	0.5	-13	-23
COCC(=O)Nc1ccccc1C#N	-5	7	3	2.2	2	-2
COc1cc(/C=C/C(=O)O)cc(S(=O)(=O)Nc2ccc3c(c2)CCC3)c1OC	21	3	4	-0.3	7	-5
CSc1ccccc1C(=O)OCC(=O)Nc1c(C)n(C)n(-c2ccccc2)c1=O	-2	15	·	-0.4	5	0
Cn1cccc1CC(=O)NNC(=S)NC(=O)c1ccc(F)cc1	-5	-19	3	0.6	-15	-14
COc1ccccc1C(=O)NCCC(=O)N(C)Cc1cccs1	-15	0	3	0.1	9	-15
CCNC(=S)N(Cc1ccc2c(c1)OCO2)C1CC(=O)N(c2ccc(OC)cc2)C1=O (configuration not stated)	-3	-2	6	0.8	1	3
CC(C)(C)CC(=O)Nc1nnc(-c2cccs2)s1	20	2	-3	-0.5	2	-18
O=C(/C=C/c1ccc(-c2ccccc2[N+](=O)[O-])o1)c1ccc(Br)cc1	-12	-14	8	-0.4	-16	-4
Nc1nnc(SCC(=O)Nc2ccc(N3CCOCC3)cc2)s1	-11	5	16	-0.3	2	-9
S=C(NCCc1ccccc1)Nc1ccc(Nc2ccccc2)cc1	26	-21	6	1.0	?	-7
COc1cn(-c2ccccc2)nc1C(=O)Nc1ccc(C)cc1	14	-5	18	1.8	-12	-16
COc1ccccc1C(=O)NC(=O)OCCn1c(C)cnc1[N+](=O)[O-]	0	0	-1	-0.2	3	-8
COc1cccc(CC(NC(C)=O)C(=O)NC2CCN(C(=O)C3CCCCC3)CC2)c1OC (configuration not stated)	0	24	1	-0.3	10	-4
CCC(=O)N1CCCC(C)(C(=O)Nc2ccc3oc(CC)nc3c2)C1 (configuration not stated)	·	-1	·	-0.7	6	2
O=C(NCCC(=O)N(CCc1ccccc1)Cc1ccccc1)c1ccc([N+](=O)[O-])cc1	6	-1	-12	1.0	-19	-9
Additional records follow.
SMILES	TRPML1 blocker	CtBP-E1A inh	TRPV1 PAM	TRPML1 ag	Six1-Eya2 blk	D2 PAM
CCOc1cc(NC(=S)NCc2ccco2)c(OCC)cc1NC(=O)CC(C)C	-18	7	-4	0.7	8	-3
Cc1nc2ccc(C(=O)OCC(=O)N(C)c3ccccc3)cc2nc1C	-7	-18	8	-0.4	0	-26
CCOC(=O)c1ccc2c(c1)nc(COc1ccc3ccccc3c1)n2CC	-12	-2	13	0.6	0	-18
Cc1ccc(S(=O)(=O)N2C[C@H]3C(=O)C[C@@H](c4ccccc4)N(S(=O)(=O)c4ccc(C)cc4)[C@H]3C[C@H]2c2ccccc2F)cc1	·	0	·	8.3	5	-8
CCC1(C)N(O)C(C)(C)C(c2ccc(OC)cc2)=[N+]1[O-] (configuration not stated)	-3	-1	0	0.0	0	-3
O=C(CCNC(=O)c1ccc(Cl)cc1)NCCC1=CCCCC1	10	-6	-10	2.3	6	-10
CC(=O)NCC(=O)N(c1ccccc1)C1(C(=O)NC2CCCCC2)CCCCC1	2	3	1	0.0	1	1
O=C(NCCS(=O)(=O)N1CCN(c2ccc(F)cc2)CC1)c1ccco1	-9	0	-11	-0.6	-6	-7
CC(C)Oc1cccc(C(=O)C2CCCN(Cc3ccc4nonc4c3)C2)c1 (configuration not stated)	-8	14	-1	1.8	3	5
CC(=O)N1C(=S)NC(=O)/C1=C1/C(=O)N(CC(=O)Nc2cccc(C)c2)c2ccccc21	-16	-15	10	-0.7	-4	-6
Cc1ccccc1-n1nc2c(c1NC(=O)c1ccc(S(=O)(=O)N(C)C)cc1)CSC2	19	2	28	0.5	3	-7
CC(C)COc1ccc(C(=O)N/C(=C/c2cccc([N+](=O)[O-])c2)C(=O)O)cc1	9	4	0	1.2	0	-3
Cc1[nH]c2ccccc2c1C(=O)CN1CCCC1	23	11	2	0.2	-1	-3
O=[N+]([O-])c1csc2ccccc12	-2	0	·	-1.1	2	-4
COc1ccc(CCNC(=O)COC(=O)c2cnccn2)cc1	-5	-1	·	0.6	8	-14
COc1cc(C(=O)COC(=O)C2CCN(c3ccc(C(F)(F)F)cn3)CC2)ccc1OC(F)F	-12	1	-12	3.1	11	10
O=C(/C=C\c1ccccc1)Nc1ccc(NC(=O)c2ccco2)cc1	5	9	5	1.9	1	6
CCC(=O)NC(Nc1cc(C)cc(C)n1)(C(F)(F)F)C(F)(F)F	-9	-3	9	1.4	-3	6
Cc1ccc(NC(=O)CCC(=O)NNC(=O)NC23CC4CC(CC(C4)C2)C3)cc1C	8	8	-14	0.3	2	-4
CN(C)S(=O)(=O)c1ccc(Cl)c(NC(=O)CSc2nnnn2-c2ccc(O)cc2)c1	-6	-7	-2	0.3	1	-8
COc1cccc(NC(=O)COC(=O)c2ccco2)c1	50	1	6	0.6	-6	3
Cc1cc(=O)n2nc(N3CCCC(C(=O)N4CCOCC4)C3)sc2n1 (configuration not stated)	-8	2	-5	0.7	8	-1
COc1ccc(-c2cc(=O)[nH]c(NCc3ccccc3)n2)cc1	6	-15	6	0.8	-3	-21
CN(C)S(=O)(=O)c1ccc2nnn(OCC(=O)NC34CC5CC(CC(C5)C3)C4)c2c1	14	-2	-5	0.0	-1	7
CCN(C[C@H]1N[C@@](Cc2ccccc2)(C(=O)OC)[C@H]2C(=O)N(C)C(=O)[C@@H]12)C(=O)Nc1ccc(C)cc1	-11	-23	·	1.6	0	-7
(next part)
SMILES	TRPML1 blocker	CtBP-E1A inh	TRPV1 PAM	TRPML1 ag	Six1-Eya2 blk	D2 PAM
CCC(C)(C)n1nnnc1CN1CCN(C(c2ccccc2)c2ccccc2)CC1	1	-6	-1	-1.1	-3	-6
O=C1CC2CS(=O)(=O)CC2N1c1ccc(Cl)cc1Cl (configuration not stated)	-11	5	-1	-0.8	2	25
CCO[C@@H]1OC(C(=O)N2CCN(Cc3ccc4c(c3)OCO4)CC2)=C[C@H](C)[C@H]1CCCO	19	-21	21	-0.6	3	-15
COc1cccc(C(N)c2nc(-c3csc4ccccc34)cs2)c1 (configuration not stated)	·	8	·	-0.4	5	-1
COc1ccc(OCCOC(=O)CNC(=O)c2ccc(C)cc2)cc1	-8	-22	11	0.2	9	-4
CCN(C(=O)c1cc(Cl)ccc1OC)c1ccccc1C	27	2	2	-0.4	-3	-24
CCOc1ccc(CCNC(=O)Cc2ccc(NC(=O)C3=C(C)OCCS3)cc2)cc1	-11	·	-6	1.5	-5	-10
COc1ccc2oc(C)c(C(=O)c3ccccc3)c2c1	-3	29	·	2.0	27	-2
O=C(CC(=O)N/N=C/c1ccc(Cl)cc1Cl)NCc1ccccc1	?	7	13	-0.4	-1	-3
O=C(NC1CCCCNC1=O)c1ccco1 (configuration not stated)	-1	·	-8	-0.2	1	-9
CCCCc1ccc(NC(=S)NCc2ccccc2OC)cc1	-11	6	-16	-0.8	7	-1
CN(C)P(=O)(Nc1cccc2ccccc12)Nc1cccc2ccccc12	12	10	0	-0.7	0	-10
Cc1cccc(CN2CCN(c3nc4nonc4nc3NC3CC3)CC2=O)c1	-3	-1	0	0.2	2	-8
CCOc1ccccc1NC(=O)c1cccc(N2C(=O)CCC2=O)c1	1	-4	2	-0.8	5	-8
Cc1nc2nc(SCC(N)=O)[nH]c2cc1Br	-8	-1	?	-0.7	-6	-6
CCOc1ccc(NC(=O)NNC(=O)c2cccnc2)cc1	19	9	-7	0.7	8	-9
C=CCOCCN(C)C1=NS(=O)(=O)c2cc([N+](=O)[O-])ccc21	-15	0	9	-0.8	-1	?
O=C1CSC(c2cn(-c3ccccc3)nc2-c2cccs2)N1CC1CCCO1 (configuration not stated)	?	-13	-5	-0.4	-8	16
COc1cc(C(=O)N(Cc2ccco2)Cc2cc3ccccc3[nH]c2=O)cc(OC)c1OC	-5	-2	-13	-0.4	-4	-4
CCOc1ccc(C(=O)OCC(=O)NCCCc2ccccc2)cc1	4	-5	-3	0.0	0	-14
COc1ccc(S(=O)(=O)NC2CCc3ccccc32)cc1OC (configuration not stated)	14	3	19	0.6	5	3
Cc1cccc(OCC(O)CN2C(C)(C)CC(O)CC2(C)C)c1C (configuration not stated)	56	4	29	-1.1	-1	-8
S=c1[nH]nc(COc2ccc3ccccc3c2)o1	35	1	?	0.8	6	-10
COCCNC(=O)CS(=O)(=O)Cc1nc(-c2ccc(C)cc2)oc1C	4	4	21	-0.5	6	-4

13 entries out of the list, ordered by length of the SMILES, falling:
SMILES	TRPML1 blocker	CtBP-E1A inh	TRPV1 PAM	TRPML1 ag	Six1-Eya2 blk	D2 PAM
CCO[C@@H]1OC(C(=O)N2CCN(Cc3ccc4c(c3)OCO4)CC2)=C[C@H](C)[C@H]1CCCO	19	-21	21	-0.6	3	-15
COc1cc(C(=O)N(Cc2ccco2)Cc2cc3ccccc3[nH]c2=O)cc(OC)c1OC	-5	-2	-13	-0.4	-4	-4
CCC(C)(C)n1nnnc1CN1CCN(C(c2ccccc2)c2ccccc2)CC1	1	-6	-1	-1.1	-3	-6
O=C1CSC(c2cn(-c3ccccc3)nc2-c2cccs2)N1CC1CCCO1 (configuration not stated)	?	-13	-5	-0.4	-8	16
Cc1cccc(CN2CCN(c3nc4nonc4nc3NC3CC3)CC2=O)c1	-3	-1	0	0.2	2	-8
O=C(CC(=O)N/N=C/c1ccc(Cl)cc1Cl)NCc1ccccc1	?	7	13	-0.4	-1	-3
Cc1cccc(OCC(O)CN2C(C)(C)CC(O)CC2(C)C)c1C (configuration not stated)	56	4	29	-1.1	-1	-8
CCOc1ccc(C(=O)OCC(=O)NCCCc2ccccc2)cc1	4	-5	-3	0.0	0	-14
CCN(C(=O)c1cc(Cl)ccc1OC)c1ccccc1C	27	2	2	-0.4	-3	-24
CCCCc1ccc(NC(=S)NCc2ccccc2OC)cc1	-11	6	-16	-0.8	7	-1
S=c1[nH]nc(COc2ccc3ccccc3c2)o1	35	1	?	0.8	6	-10
Cc1nc2nc(SCC(N)=O)[nH]c2cc1Br	-8	-1	?	-0.7	-6	-6
O=C(NC1CCCCNC1=O)c1ccco1 (configuration not stated)	-1	·	-8	-0.2	1	-9
